Screening results from PubChem BioAssay.
PrP UTR inh – inhibition of PrP 5' UTR reporter expression; cell-based PrP 5' UTR mRNA reporter, plate reader; inhibition, % (concentration not given with the values); 0.35% of 340,000 active;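 active = every replicate at 50% or more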;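 note: 0 = median of the neutral control wells; tested in H4 reporter cells; numbers are from one replicate; inactives centre near -14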
BJeLR viability – MLPCN primary cell-based screen for lethality selective to Ras in HRASV12 cells; BJeLR (HRASV12) viability, CellTiter-Glo ATP luminescence, 48 h; reference of the scale not given here; inhibition, % (concentration not given with the values); 0.17% of 300,000 active; AID 1554, 2009;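 active = replicate mean above 50%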;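 note: 50 nL library stock added to about 25 µL; numbers are from one replicate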
Bead autofluor – compound fluorescence in toxin protease inhibitor counterscreen; 3.1% of 360,000 active; fluorescence intensity (test concentration not listed); compound autofluorescence counterscreen, microsphere flow cytometry; hits give high values;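 active = at least 3 SD above the mean of all compounds, about 16000 in these data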;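 note: 100 nL of 1 mM stock went into each well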
Sa RN4220 lethal – growth inhibition of S. aureus RN4220, primary screen, OD600; 0.33% of 330,000 active; inhibition, % (concentration not given with the values); 16 h;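 active = z-score of -3 or lower and OD600 up to 0.18 on both plates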;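 note: plate controls were untreated cells for no effect and reference antibiotic for full effect; stock transfer was 100 nL into about 80 µL; one replicate is shown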
Sa ugtP lethal – growth inhibition of ugtP-null S. aureus, primary screen, RN4220 ugtP deletion, OD600; 16 h; some inactives read as strong as hits; growth inhibition, % (no concentration beside the values); 0.54% of 330,000 active;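 active = z-score under -3 and OD600 up to 0.15 on both plates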;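 note: plate controls were untreated wells for no effect and antibiotic for full effect; wells of about 80 µL received 100 nL stock; the first replicate is given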
Mtb hypoxia inh – PubChem AID 1159583; M. tuberculosis hypoxia-regulated fluorescent reporter, fluorescence; fluorescence inhibition, % (no concentration beside the values); 0.1% of 300,000 active;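 active = 35 to 45% if threefold the growth effect, above 45% if 1.5-fold the growth effect; inactive = the rest, general growth blockers included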;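 note: wells of about 50 µL received 100 nL stock; 0% = vehicle wells and 100% = reference inhibitor wells; whole bacteria with a GFP reporter of the hypoxia response; strong numbers were not always called active; many hits fall short of the cut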
Mtb hypoxia inh growth – second read-out of Mtb hypoxia inh, no call of its own (marks repeat the call); growth inhibition, %; measured here: M. tuberculosis growth (absorbance);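 0% = vehicle and 100% = reference antibiotic; read after six days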
Numbers without * were called inactive; / = no result given; & = joins results of further samples.

SMILES	PrP UTR inh	BJeLR viability	Bead autofluor	Sa RN4220 lethal	Sa ugtP lethal	Mtb hypoxia inh	Mtb hypoxia inh growth
Cc1ccc(-n2c(SCC(=O)OC(C)C)nnc2-c2ccccn2)cc1	-2	1	4009	5.1	13	6	7
Cc1n[nH]c(=S)n1/N=C/c1ccccc1OCc1ccc(Cl)cc1Cl	-10	2	2244	/	/	/	/
O=C(CCc1ccccc1)N[C@@H]1c2ccccc2CC[C@H]1OCc1ccccc1	0	/	2984	0.8	13	3	4
O=C(OCc1ccccc1Cl)c1ccccc1C(=O)c1ccccc1	-8	14	22408*	8.6	46	-2	5
CC(C)CCOP(=O)(c1ccc(N(C)C)cc1)C(O)c1c(Cl)cccc1Cl (configuration not stated)	-9	-2	2883	3.6	-17	4	-2
COc1ccc(CCNC(=O)COC(=O)c2cc(S(=O)(=O)N3CCOCC3)ccc2C)cc1OC	-26	/	3493	2.7	8	8	-2
CCOC(=O)N1CCN(C(=S)Nc2ccc3nc(N4CCN(CC)CC4)cc(C)c3c2)CC1	-12	-6	8749	2.3	3	4	11
CCOc1ccc(-c2nnn(CC(=O)NCCc3c[nH]c4ccccc34)n2)cc1	-19	-13	8532	-3.5	42	8	9
O=C(NN=C1CCCCC1)NC1CCCCC1	5	2	2468	-2.4	-7	-5	0
CCOC(=O)c1ccc(N2C(=O)C=CC2=O)cc1	-5	-7	10131	2.6	5	17	8
Nc1c(-c2cccc([N+](=O)[O-])c2)nc2ccccn12	-15	2	2556	0.0	-14	2	7
CN1c2ccc(C=O)c3c(C=O)ccc(c23)N(C)C1(C)C	16	5	2864	0.9	1	12	-5

At a glance, some entries already given.
SMILES	PrP UTR inh	BJeLR viability	Bead autofluor	Sa RN4220 lethal	Sa ugtP lethal	Mtb hypoxia inh	Mtb hypoxia inh growth
Cc1n[nH]c(=S)n1/N=C/c1ccccc1OCc1ccc(Cl)cc1Cl	-10	2	2244	/	/	/	/
O=C(CCc1ccccc1)N[C@@H]1c2ccccc2CC[C@H]1OCc1ccccc1	0	/	2984	0.8	13	3	4

New compounds follow.
SMILES	PrP UTR inh	BJeLR viability	Bead autofluor	Sa RN4220 lethal	Sa ugtP lethal	Mtb hypoxia inh	Mtb hypoxia inh growth
COc1ccc(NC(=O)N2C3CCCC2CC(NC(=O)c2ccccc2)C3)cc1 (configuration not stated)	-12	5	3947	3.2	-2	0	3
O=C(NC(Cc1ccccc1)C(=O)O)/C(=C\c1ccccc1F)NC(=O)c1ccccc1 (configuration not stated)	-19	0	4590	4.8	12	9	3
CC(C)(C)OC(=O)NC(C(=O)OC(C)(C)C)c1ccc(C(F)(F)F)cc1 (configuration not stated)	/	/	/	2.7&-0.1	6&-1	7&9	-2&-3
CC1CN(C)C(C)CC1=NOc1ccc([N+](=O)[O-])cc1 (configuration not stated)	/	/	/	2.0	5	2	-7
CCCNC(=O)c1onc(CSc2ccncc2)c1C(=O)NCCC	-7	5	2875	2.7	-3	7	10
Cc1ccccc1NC(=O)N1CCN(C(=O)c2ccco2)CC1	-28	0	2459	2.5	11	-13	-10
COc1ccc(OC)c(-c2cc(C(=O)NCc3ccc(Cl)cc3)no2)c1	-9	-4	4629	4.4	9	2	4
COc1ccc(C)cc1NC(=O)CCCN1C(=S)NC(C)(C)CC1C (configuration not stated)	0	4	10026	6.8	9	6	5
COc1ccc(CNC(=O)C2Cc3cc(S(=O)(=O)N4CCCC4)ccc3N2C(C)=O)c(OC)c1 (configuration not stated)	-10	-6	5920	0.1	0	11	6
Cc1cc(C)n(-c2nnc(C)n2NC(=O)c2cccc(Cl)c2)n1	-43	-15	10177	-2.8	-4	1	-7
COc1ccc(C=Nn2cnc3c([nH]c4ccc(F)cc43)c2=O)cc1CN1CCCC1	/	/	/	-1.0	-3	-1	1
Cc1ccccc1C(=O)NC(=S)N(CCO)Cc1ccccc1	-32	-3	3527	3.2	14	12	9
CN1CC(=O)N(CC(=O)Nc2ccc(F)cc2)c2ccccc2C1=O	16	16	4808	0.6	0	/	/
Cc1nc(N2CCCCC2)c2c(C)c(C(=O)Nc3ccc4c(c3)OCCO4)sc2n1	12	-9	3968	3.9	-14	1	-7
COc1ccc(Cl)cc1NC(=S)N(Cc1ccccc1C)CC1CCC(C(=O)O)CC1 (configuration not stated)	-35	-1	3167	0.4	12	12	5

15 entries from above, with bars between the fields:
canonical_smiles | PrP UTR inh | BJeLR viability | Bead autofluor | Sa RN4220 lethal | Sa ugtP lethal | Mtb hypoxia inh | Mtb hypoxia inh growth
COc1ccc(NC(=O)N2C3CCCC2CC(NC(=O)c2ccccc2)C3)cc1 (configuration not stated) | -12 | 5 | 3947 | 3.2 | -2 | 0 | 3
O=C(NC(Cc1ccccc1)C(=O)O)/C(=C\c1ccccc1F)NC(=O)c1ccccc1 (configuration not stated) | -19 | 0 | 4590 | 4.8 | 12 | 9 | 3
CC(C)(C)OC(=O)NC(C(=O)OC(C)(C)C)c1ccc(C(F)(F)F)cc1 (configuration not stated) | / | / | / | 2.7&-0.1 | 6&-1 | 7&9 | -2&-3
CC1CN(C)C(C)CC1=NOc1ccc([N+](=O)[O-])cc1 (configuration not stated) | / | / | / | 2.0 | 5 | 2 | -7
CCCNC(=O)c1onc(CSc2ccncc2)c1C(=O)NCCC | -7 | 5 | 2875 | 2.7 | -3 | 7 | 10
Cc1ccccc1NC(=O)N1CCN(C(=O)c2ccco2)CC1 | -28 | 0 | 2459 | 2.5 | 11 | -13 | -10
COc1ccc(OC)c(-c2cc(C(=O)NCc3ccc(Cl)cc3)no2)c1 | -9 | -4 | 4629 | 4.4 | 9 | 2 | 4
COc1ccc(C)cc1NC(=O)CCCN1C(=S)NC(C)(C)CC1C (configuration not stated) | 0 | 4 | 10026 | 6.8 | 9 | 6 | 5
COc1ccc(CNC(=O)C2Cc3cc(S(=O)(=O)N4CCCC4)ccc3N2C(C)=O)c(OC)c1 (configuration not stated) | -10 | -6 | 5920 | 0.1 | 0 | 11 | 6
Cc1cc(C)n(-c2nnc(C)n2NC(=O)c2cccc(Cl)c2)n1 | -43 | -15 | 10177 | -2.8 | -4 | 1 | -7
COc1ccc(C=Nn2cnc3c([nH]c4ccc(F)cc43)c2=O)cc1CN1CCCC1 | / | / | / | -1.0 | -3 | -1 | 1
Cc1ccccc1C(=O)NC(=S)N(CCO)Cc1ccccc1 | -32 | -3 | 3527 | 3.2 | 14 | 12 | 9
CN1CC(=O)N(CC(=O)Nc2ccc(F)cc2)c2ccccc2C1=O | 16 | 16 | 4808 | 0.6 | 0 | / | /
Cc1nc(N2CCCCC2)c2c(C)c(C(=O)Nc3ccc4c(c3)OCCO4)sc2n1 | 12 | -9 | 3968 | 3.9 | -14 | 1 | -7
COc1ccc(Cl)cc1NC(=S)N(Cc1ccccc1C)CC1CCC(C(=O)O)CC1 (configuration not stated) | -35 | -1 | 3167 | 0.4 | 12 | 12 | 5
